RanGTP-Imp inh: inhibitors of RanGTP-importin-beta interaction, primary screen, biochemical, FRET, CFP-Ran, YFP-importin-beta, homogeneous | cell-free CFP-Ran/YFP-importin-beta FRET ratio | inhibition, % (no concentration beside the values) | 1.1% of 300,000 active;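 active = most replicates above 15%; inconclusive = exactly half above 15%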;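 also: 0% = DMSO wells and 100% = Ran loaded with GDP instead of GTP; wells of about 40 µL received 100 nL stock; the first replicate is given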
LANA-H2A inh: blocks KSHV LANA binding to histone H2A/H2B; Q9QR71; cell-free LANA-H2A/H2B peptide, fluorescence polarization; inhibition, % (concentration not given with the values); 0.6% of 320,000 active; AID 2629; in the data active = inhibition mostly above about 10%, no sharp cut-off; inactive = mostly below about 6.7%;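 also: stock transfer was 7.5 nL into about 10 µL; 0% = median of vehicle wells and 100% = median of positive control wells; one replicate is shown; the record names a cut of 25% in any replicate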
Target sequence (Q9QR71 whole entry, looked up): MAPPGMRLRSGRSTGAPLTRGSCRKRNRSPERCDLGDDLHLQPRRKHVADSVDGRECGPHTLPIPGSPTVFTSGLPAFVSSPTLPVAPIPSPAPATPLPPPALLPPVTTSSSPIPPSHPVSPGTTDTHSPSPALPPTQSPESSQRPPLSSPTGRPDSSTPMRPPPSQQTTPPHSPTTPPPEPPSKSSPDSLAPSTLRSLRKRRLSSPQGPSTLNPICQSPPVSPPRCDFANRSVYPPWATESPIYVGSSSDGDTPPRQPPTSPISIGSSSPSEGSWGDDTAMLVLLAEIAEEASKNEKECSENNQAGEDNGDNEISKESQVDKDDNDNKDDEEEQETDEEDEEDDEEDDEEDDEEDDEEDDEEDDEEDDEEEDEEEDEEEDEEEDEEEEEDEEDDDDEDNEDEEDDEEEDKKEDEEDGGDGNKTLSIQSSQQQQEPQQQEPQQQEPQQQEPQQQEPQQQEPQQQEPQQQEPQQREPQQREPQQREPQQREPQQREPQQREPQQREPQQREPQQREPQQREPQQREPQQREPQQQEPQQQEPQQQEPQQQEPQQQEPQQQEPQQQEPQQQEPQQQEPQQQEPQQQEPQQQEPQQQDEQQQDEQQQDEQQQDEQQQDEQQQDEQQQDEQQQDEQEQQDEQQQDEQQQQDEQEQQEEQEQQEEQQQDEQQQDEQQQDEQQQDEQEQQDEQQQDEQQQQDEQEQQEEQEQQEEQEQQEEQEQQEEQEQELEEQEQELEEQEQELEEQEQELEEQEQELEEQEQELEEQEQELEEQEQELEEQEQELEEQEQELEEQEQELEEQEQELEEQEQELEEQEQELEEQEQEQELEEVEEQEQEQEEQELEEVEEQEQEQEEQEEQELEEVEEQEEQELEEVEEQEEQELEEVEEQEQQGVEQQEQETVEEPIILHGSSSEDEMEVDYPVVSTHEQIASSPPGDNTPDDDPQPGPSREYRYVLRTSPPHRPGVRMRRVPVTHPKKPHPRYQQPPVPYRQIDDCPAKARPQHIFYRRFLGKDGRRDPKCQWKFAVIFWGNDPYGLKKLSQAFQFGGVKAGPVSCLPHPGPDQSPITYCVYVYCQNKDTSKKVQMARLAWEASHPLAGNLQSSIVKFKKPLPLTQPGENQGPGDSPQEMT
Beta apoptosis: beta cell apoptosis inhibition; AID 435005; INS-1E cytokine-induced death, ATP luminescence, 48 h; percent of positive-control rescue, neutral wells zero; 0.8% of 300,000 active; protection from apoptosis, % (test concentration not listed);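 active = all replicates at 75% or more, or half of them and the mean; inconclusive = half reach 75% but not the mean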;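 also: 0% = cytokine-treated negative control wells and 100% = positive control rescue; higher means more ATP so stronger rescue from cytokine killing; wells of about 40 µL received 100 nL stock; the first replicate is given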
Calb FLC: C. albicans growth modulation with fluconazole | AID 1979 | C. albicans CaCi-2 (fluconazole-resistant clinical isolate) + fluconazole, Alamar Blue growth, 48 h | growth inhibition, % (concentration not given with the values) | 0.57% of 300,000 active;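 active = most replicates above 75%; inconclusive = exactly half above 75%; inactive = most below 75%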;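 also: all wells also contain fluconazole at 8 µg/ml as a sub-toxic cotreatment; 0% = median of DMSO wells and 100% = median of geldanamycin control wells; wells of about 8 µL received 7.5 nL stock; the first replicate is given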
MLL AF4-AF9 inh: inhibitors of human MLL-AF4/AF9 interaction; P42568; AlphaScreen, biotin-AF4 peptide binding to FLAG-AF9; inhibition, % at 10 µM; 0.47% of 350,000 active;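 active = every replicate reaching a set inhibition limit, whatever the replicate mean, cut at about 25% in these data; inconclusive = mean inhibition reaches that limit but some replicates miss it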;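 also: 0% = plate neutral control median and 100% = total signal loss; the record names both 10 and 1 µM as test concentration; the first replicate is given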
Vif TR-FRET: HIV-1 Vif–A3G interaction blockers – biochemical, TR-FRET, GST-Vif 1-94, biotin-A3G peptide, dose response retest, primary screen (AID 1117319) | one-dose inhibition, %; IC50 in µM for titrated hits | 0.57% of 260,000 active | TR-FRET GST-Vif / biotin-A3G peptide binding; higher % means a stronger effect; test concentration not given here; strong numbers were not always called active;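 active = above the screen mean plus three standard deviations and confirmed in dose response; inconclusive = results disagree or hit not tested in dose response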;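 also: Vif residues 1-94 fused to GST binding biotinylated APOBEC3G peptide 110-148; 0% = full assay without inhibitor and 100% = GST in place of GST-Vif; retest series ran down from 100 µM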
A1 inh: inhibitors of the anti-apoptotic protein A1, read as caspase activation. MEF A1-2A-BIM cells, Caspase-Glo 3/7 luminescence, 3 h; percent of clofoctol response, vehicle zero. AID 2462. caspase activation, % (concentration not given with the values). 0.066% of 330,000 active;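 active = over half of replicate activation scores above 10%, or exactly half above 10 with the replicate mean above 10; inconclusive = replicate mean below 10 yet half the replicates above 10; inactive = over half of replicates below 10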;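 also: wells of about 30 µL received 50 nL stock; many hits fall short of the cut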
T cruzi inh: T. cruzi replication inhibition. T. cruzi beta-gal in NIH3T3, luminescence, 90 h. inhibition, % (no concentration beside the values). 1.4% of 300,000 active. AID 1885;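 active = mean inhibition across valid replicates above about 55%, limit read from the data; inconclusive = mean below that limit but half or more replicates reach it; inactive = mean below it, under half of replicates reach it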;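 also: signal also drops with host cell toxicity which is not excluded here; 0% = plate median of DMSO wells and 100% = zero luminescence signal; higher percent means less beta-gal luminescence so fewer parasites; stock transfer was 50 nL into about 50 µL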
The depositor's hits bear a star; ? = inconclusive; · = no result given; & = joins results of further samples.

Results follow in this order: RanGTP-Imp inh	LANA-H2A inh	Beta apoptosis	Calb FLC	MLL AF4-AF9 inh	Vif TR-FRET	A1 inh	T cruzi inh
COCCCNC(=S)N/N=C/c1ccc(OC)cc1
  -4.1	-3.7	2	0	-5.3	-3%	-0.2	-11
COc1ccc2c3n(nc2c1)CCN=C3c1cc(Cl)c(N)c(Cl)c1
  ·	2.3	16	·	24	·	-0.2	·
COc1ccc(CCNS(=O)(=O)c2cc(C(=O)O)c(Cl)cc2Cl)cc1
  -0.1	2.5	-6	-1	-1.1	31%	1.5	-6
COc1cccc(-c2ccc(SCC(=O)N3CCc4ccccc43)nn2)c1
  0.9	-5.0	2	-18	·	·	0.0	24
O=c1[nH]c2ccccc2n1Cc1ccc(Cl)cc1
  2.0	4.2	0	-6	·	26%	0.4	11
COc1cc(OC)cc(C(=O)NNC(=O)c2ccc3c(c2)OCCO3)c1
  ·	9.2	4	·	-1.0	-7%	-3.2	·
NNC(=O)c1ccc(CN2CCCCC2)o1
  0.4	3.2	0	-9	-5.8	·	0.1	-26
CC1CCCC(NCC(=O)Nc2ccc(C(N)=O)cc2)C1C (stereo not given)
  -1.4	0.6	-4	-3	1.1	1%	1.1	-17
CC(=O)O[C@@H]1C[C@H]2C(C)(C)C(=O)C=C[C@]2(C)[C@H]2CC[C@@]3(C)[C@H](c4ccoc4)OC(=O)[C@H]4O[C@]43[C@@]21C
  2.9	1.2	-19	19	6.5	?	0.2	32
CCCCN(CC)Cc1c(C)[nH]c2ccccc2c1=O
  -3.9	-0.5	0	3	·	3%	0.6	-3
O=C(c1ccc(N2CCCCS2(=O)=O)cc1)N1CCN(c2ccc(N3CCOCC3)nn2)CC1
  -1.5	0.4	-9	16	1.5	1%	0.7	-5
Cc1cc([N+](=O)[O-])nn1CC(=O)Nc1sc2c(c1C(N)=O)CCCC2
  5.0	3.3	-2	34	-1.5	10%	-0.2	4
S=C(Nc1ccc(Br)cc1Cl)NC1CCN(Cc2ccccc2)CC1
  -1.6	-0.9	·	-15	6.6	-5%	0.6	60*
CC(=O)Nc1ccc(NC(=O)c2cc(-c3ccccc3)nc3ccccc23)cc1
  -3.3	2.0	·	0	1.5	·	1.4	6
CCN(CC)C(=O)C[n+]1ccc(C(N)=O)cc1
  2.5	-0.2	3	29	0.5	4%	-0.2	-1
Cc1ccc(NC(=O)CN2C(=O)CCSc3ccc(S(=O)(=O)N4CCCC4)cc32)cc1
  4.0	-6.5	0	0	-0.1	·	0.7	11
CCOC(=O)c1sc(=S)n(-c2ccc(OC)cc2)c1N
  ?	-2.9	-1	2	2.0	2%	-1.4	-6
Clc1ccc(-c2nc(NCCN3CCOCC3)c3ccccc3n2)cc1
  -3.2	-2.4	4	26	·	-12%	0.6	25
Cc1cc(C(=O)Nc2ccc(Nc3ccccc3)cc2)ccc1[N+](=O)[O-]
  0.2	2.8	6	5	0.5	-2%	1.9	38
Cc1nnc(SCC(=O)NC2CCC(C)CC2)s1 (stereo not given)
  -2.9	5.2	2	-10	-0.4	·	-0.6	2
CC1CCN(C(=O)CSc2nnc(Cc3cccn3C)n2-c2ccc(F)cc2)CC1
  -0.8	-2.3	-1	-3	3.5	25%	0.6	1
COC(=O)CN1C(=O)C2(C(C#N)=C(N)Oc3ccccc32)C2=C1CC(C)(C)CC2=O (stereo not given)
  ?	-1.7	·	-4	·	-5%	0.4	-7
O=C(NCC(=O)N1CCN(S(=O)(=O)c2ccccc2F)CC1)c1ccc(Br)o1
  -2.5	-5.5	2	12	-5.7	3%	0.4	-3
CCOc1cc(/C=C2/N=C(C)C(C(=O)OC)=C2O)ccc1O
  5.2	-2.4	-5	0	1.2	7%	-0.7	-8
COCCN1C(=O)c2oc3c(C)cc(C)cc3c(=O)c2C1c1cccc(O)c1 (stereo not given)
  -0.2	-1.3	-1	-8	·	1%	0.5	21
CCC(=O)c1ccc(OCC(=O)OCC(=O)Nc2c(C)n(C)n(-c3ccccc3)c2=O)cc1
  ?	0.0	5	-4	-1.4	·	-0.1	-10
CCC(Oc1ccccc1C)C(=O)Nc1ccc(S(=O)(=O)Nc2cc(C)on2)cc1 (stereo not given)
  1.9	-0.1	-5	0	2.3	·	0.7	0
COc1ccc(C(CC(=O)O)NC(=O)c2sc3ccccc3c2Cl)cc1 (stereo not given)
  0.3	-0.2	-5	34	-5.4	-11%	-0.4	-20
COc1ccc(-c2noc(-c3ccccc3C(=O)NCc3ccco3)n2)cc1OC
  5.5	0.5	-4	-4	·	3%	-1.1	-10
COc1ccc(/C=C2\SC(=O)N(CC(=O)Nc3cccc(C)c3)C2=O)cc1O
  4.1	-1.0	7	30	-0.2	-4%	1.5	-13
COc1ccc(-c2csc3ncnc(N4CCN(c5ccccc5)CC4)c23)cc1
  -1.0	-3.5	2	-14	6.2	-12%	-1.2	13
COc1ccccc1-n1nnnc1SCC(=O)NC1CC1
  -1.0	-5.6	-3	0	-0.7	3%	0.3	-10
CC(C)C(=O)Nc1ccc(Sc2ccc(F)cc2)cc1
  -4.3	-0.6	5	-19	·	-6%	1.4	?
COC(=O)c1ccc(N(C(=O)CNC(=O)c2ccco2)C(C(=O)NC2CCCC2)c2ccco2)cc1 (stereo not given)
  -2.2	2.6	-1	2	·	0%	1.2	-6
Cn1c(=O)c2c(SCC(=O)N3CCOCC3)nc(-c3ccccc3Cl)nc2n(C)c1=O
  0.8	4.5	-1	2	-2.7	·	0.9	27
O=C(Cn1c(=S)[nH]c2ccccc2c1=O)N1CCN(c2ccc(F)cc2)CC1
  -2.7	-0.2	2	-8	-0.7	-10%	1.9	-14
Cc1cc(Cl)ccc1NNC(N)=S
  -0.4	1.7	0	-1	0.0	-9%	1.2	7
COc1ccc(S(=O)(=O)N2CCC(C(=O)N(CC(C)C)C3CCS(=O)(=O)C3)CC2)cc1OC (stereo not given)
  0.8	-3.8	-1	-2	-9.9	-2%	2.0	4
S=c1[nH]nc(-c2ccco2)n1/N=C/c1c(Cl)cccc1Cl
  ?	-1.7	-4	2	-15	1%	0.2	-1
O=C(C1CCC1)N1CCN(c2ccccc2)CC1
  3.4	0.1	3	-6	0.6	·	0.1	-17
Cn1c(=O)c2c(nc(N3CCN(Cc4ccccc4)CC3)n2CC(=O)c2ccccc2)n(C)c1=O
  ?	1.5	9	-3	·	7%	0.2	15
CCN(CCNC(=O)C1CCN(Cc2nc(-c3cccc(Cl)c3)oc2C)CC1)c1ccccc1
  -1.2	4.0	39	-23	·	1%&-3%	1.1	?
CCOc1ccc(-n2c(O)c(/C=N/c3ccnn3Cc3ccncc3)c3ccccc3c2=O)cc1
  0.3	-4.6	-6	15	-5.3	0%	-0.3	4
O=C(NCc1cccc(C(F)(F)F)c1)c1ccc[nH]1
  -0.5	-4.5	-1	3	-0.5	-3%	-1.3	12
CN1CCc2ccccc2Cc2[nH]c3ccccc3c2CC1
  ·	-5.2	-2	·	4.6	·	0.0	·
COc1ccc(/C=C/C(=O)Nc2ccc(-n3nncc3-c3ccc(OC)c(OC)c3)cc2)cc1OC
  1.6	-3.4	3	-3	2.4	·	-0.9	-18
C=CCNC(=O)Nc1cc(Cl)ccc1OC
  -5.4	0.1	-6	26	-0.4	-5%	1.0	-10
COc1ccc(C(=O)NC(=S)Nc2nc(C)cc(C)n2)cc1Br
  3.4	3.9	-5	8	-2.8	-12%	0.9	6
COc1cccc(N2CCN(C(=O)c3[nH]c(C)c(C(C)=O)c3C)CC2)c1
  ?	-3.3	-8	1	·	12%	1.1	-30
CCOc1ccc(NC(=O)CCc2ccc(C)o2)cc1
  -1.1	-3.5	·	-1	0.2	-4%	-1.2	21

Next structures.
Results follow in this order: RanGTP-Imp inh	LANA-H2A inh	Beta apoptosis	Calb FLC	MLL AF4-AF9 inh	Vif TR-FRET	A1 inh	T cruzi inh
COc1cccc(C(=O)Oc2ccc3c(C)cc(=O)oc3c2C(C)=O)c1
  -4.5	3.8	2	-2	·	5%	0.1	-15
Cc1ccc2c(c1)N(CC(=O)NC1CCC(C)CC1)C(=O)c1cccnc1O2 (stereo not given)
  0.0	9.2	0	-3	-2.2	1%	-0.5	1
COc1ccc(CCCc2nnc(SCC(=O)Nc3cc(C)ccc3C)o2)cc1
  0.8	0.1	-8	-2	·	-1%	0.3	-8
Cc1cc[n+](C2=C([O-])c3ccccc3C(=O)/C2=N\S(=O)(=O)c2cccs2)cc1C
  -1.3	-4.9	-6	55	0.4	4%	-1.6	57*
COc1ccccc1C(=O)Nc1ccc(OC(C)C(=O)N2CCOCC2)cc1 (stereo not given)
  ·	0.9	1	·	-0.3	12%	?	·
Cc1ccc(NC(=O)c2cc3nc(C)cc(C)n3n2)cc1
  -5.2	·	·	?	·	3%	·	8
COc1ccc(/C=C/C(=O)c2c(O)cc(C)oc2=O)c(OC)c1
  4.7	9.5	7	0	·	18%	-0.2	-18
CCN(C(=O)CN1CCN(c2ccccc2OC)CC1)c1c(N)n(Cc2ccccc2)c(=O)[nH]c1=O
  -13	-1.9	-2	3	·	0%	2.8	-8
NC(=O)NOCc1ccc(F)cc1Cl
  -2.2	-5.6	-4	-4	-2.2	19%	-0.3	-2
COc1cc(C2C(C(=O)c3ccc(C)o3)=C(O)C(=O)N2CCc2ccccc2)ccc1O (stereo not given)
  -1.0	2.2	5	0	·	4%&-2%	-0.5	-11

Single records (already shown). Screens in order: RanGTP-Imp inh, LANA-H2A inh, Beta apoptosis, Calb FLC, MLL AF4-AF9 inh, Vif TR-FRET, A1 inh, T cruzi inh
Cc1ccc2c(c1)N(CC(=O)NC1CCC(C)CC1)C(=O)c1cccnc1O2 (stereo not given) is listed with 0.0, 9.2, 0, -3, -2.2, 1%, -0.5, 1
COc1ccccc1C(=O)Nc1ccc(OC(C)C(=O)N2CCOCC2)cc1 (stereo not given) is listed with ·, 0.9, 1, ·, -0.3, 12%, ?, ·
COc1ccc(CCCc2nnc(SCC(=O)Nc3cc(C)ccc3C)o2)cc1 is listed with 0.8, 0.1, -8, -2, ·, -1%, 0.3, -8

(cont.)
Results follow in this order: RanGTP-Imp inh	LANA-H2A inh	Beta apoptosis	Calb FLC	MLL AF4-AF9 inh	Vif TR-FRET	A1 inh	T cruzi inh
O=C(c1ccccc1)C1C(=O)c2ccccc2C1=O
  6.8	0.5	-3	-25	-25	2%	0.2	-24
CCCn1cc(CN2CCC(n3nccc3NC(=O)C(OC)c3ccccc3)CC2)c(C)n1 (stereo not given)
  4.4	-6.4	-4	1	1.1	·	0.5	10
CCONC(=O)Nc1ccccc1
  -4.6	3.5	-8	-4	·	·	0.0	4
O=C(Nc1cccc(Cl)c1)c1ccccc1
  ·	-4.5	0	·	-1.7	·	-3.1	·
Cc1ccccc1CNC(=O)C1CCC(=O)N(C2CCCCCC2)C1 (stereo not given)
  5.6	1.9	-8	-8	-6.0	2%	0.3	-6
Cc1cc(C)c2c3c(sc2n1)C(=O)N(c1ccccc1C)CC(=O)N3
  -0.3	5.8	·	-1	-8.9	·	0.1	-9
O=C(O)c1cc(N/N=C/c2cccs2)ccc1Cl
  -4.3	7.0	-3	-6	·	24%	0.4	4

High-throughput results as filed in PubChem.
